High-throughput results as filed in PubChem BioAssay.
Rango complex inh: inhibitors of Rango-importin beta complex formation. Q14974. Rango CFP/YFP FRET sensor + importin beta, 45 min. Potency, µM (doses to about 92.2 µM), without a hit: at the highest dose inhibition of complex formation. 340,000 compounds, 0.031% hits. AID 540263; active = rising FRET ratio curve, often small or poorly fitted; inconclusive = mostly compound fluorescence or quenching in the first reads; inactive = flat curves in all reads;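 also: potency is read from the fitted curve at half-maximal effect; 0% = DMSO wells and 100% = buffer wells lacking importin beta; nearly all actives have a fitted effect of over 15% in size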
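Inhibition scored from the CFP 486 nm/YFP 530 nm FRET ratio 45 min after adding 0.125 microM importin beta to 50 nM Rango biosensor preincubated 5 min with compound (room temperature, PBS with DTT, Tween-20, BSA). No-importin wells as positive control.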
GLA inh pH 4.5: alpha-galactosidase A (human) inhibition, pH 4.5 | P06280 | purified enzyme, 4-MU-alpha-Gal fluorescence, pH 4.5 | activity change, negative = inhibition, % at 105 µM | 230,000 tested, under 10 active | AID 1467; inconclusive = small, poorly fitted or top-dose-only inhibition, or a rising curve; inactive = flat fitted curve, though single readings scatter; no compound was filed as active;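 also: 0% = full activity with enzyme and -100% = basal without enzyme; dose as in the result columns while the protocol names 77 µM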
Target sequence (P06280 whole entry, looked up): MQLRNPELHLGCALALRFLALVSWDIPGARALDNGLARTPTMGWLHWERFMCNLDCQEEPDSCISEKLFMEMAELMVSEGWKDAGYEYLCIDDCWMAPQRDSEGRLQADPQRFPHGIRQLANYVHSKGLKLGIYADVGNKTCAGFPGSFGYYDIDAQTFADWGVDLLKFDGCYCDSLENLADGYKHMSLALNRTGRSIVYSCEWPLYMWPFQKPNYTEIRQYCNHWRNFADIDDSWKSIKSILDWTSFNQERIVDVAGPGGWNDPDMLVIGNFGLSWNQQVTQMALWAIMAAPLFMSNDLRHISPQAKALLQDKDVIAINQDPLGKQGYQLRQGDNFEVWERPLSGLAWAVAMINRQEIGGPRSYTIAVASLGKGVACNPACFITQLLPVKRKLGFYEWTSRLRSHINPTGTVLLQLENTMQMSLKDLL
miR-21 FLuc: raises the signal of a miR-21 reporter | HeLa miR-21 FLuc reporter, luciferase, 48 h | Potency, µM (series often up to 38.3 µM), for inactives: at the highest dose reporter change, positive = more light | 340,000 tested, under 10 active | AID 2288; active = well fitted rising curve with a large enough effect; inconclusive = small, poorly fitted or top-dose-only effect; inactive = no such curve, though single readings can be large or run the other way;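 also: % of control where 0% means no effect; miR-21 action dims this reporter so a rising signal means less miR-21 action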
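Luminescence from a firefly luciferase reporter carrying a miR-21 binding site downstream, stably expressed under a CMV promoter in HeLa cells that make miR-21 endogenously, reports miRNA modulation after 48 h compound exposure up to approximately 40uM final.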
Rango dissoc inh: inhibition of RanGTP-driven Rango-importin beta dissociation | Potency, µM (highest dose often 46.1 µM), for inactives: at the top dose activity change, negative = inhibition | O95149+P62826 | Biochemical FRET Rango-importin beta, RanGTP-induced dissociation | 340,000 compounds, 0.071% hits; active means falling FRET ratio curve, often poorly fitted, with flat reads before Ran was added; inconclusive means other falling curves, or compound fluorescence or quenching; inactive means flat or rising ratio curve;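 also: potency is read from the fitted curve at half-maximal effect; % of control where 0% means no effect; nearly all actives have a fitted effect of over 45% in size; -100% = wells without RanGTP and RCC1; the record marks most hits as doubtful in a second field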
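Quantitative HTS using a FRET biosensor: 0.1 uM Rango, 0.25 uM importin beta, 0.6 uM Ran, 2 mM GTP, 0.2 uM RCC1 final, PBS with DTT, Tween-20 and BSA. Post-read taken 45 min after Ran addition.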
* = called active by the depositor; ? = inconclusive; . = not tested or not shown. Not all compounds are listed (hit frequency here may not be typical).

Values in the order: GLA inh pH 4.5, miR-21 FLuc, Rango complex inh, Rango dissoc inh
1. CCOc1ccc(N=C/C=C/c2ccccc2)c(O)c1
→ 2, -78%, -2.4%, -5%
2. CCOC(=O)[C@H]1O[C@@H]1C(=O)N[C@@H](CC(C)C)C(=O)NCCC(C)C
→ 5, -1%, 1.1%, 8%
3. CC(C)CN(C(=O)CCC(=O)OCc1ccc(Cl)cc1Cl)c1c(N)n(CC(C)C)c(=O)[nH]c1=O
→ ., ., 1.0%, 26%
4. CN(Cc1cnn(C)c1)C(=O)c1cc2ccccc2oc1=O
→ 5, -1%, 0.0%, 0%
5. CCC1(c2ccc(F)cc2)NC(=O)N(CC(=O)NC2CCCC(C)C2C)C1=O (centres undefined)
→ ., ., 1.0%, 0%
6. CN1CCN(C(=S)NCCc2ccccc2)CC1
→ 5, -32%, -2.7%, -19%
7. CC(OC(=O)[C@@H](NC(=O)c1ccco1)C(C)C)C(=O)Nc1ncc(Cl)cc1Cl (some centres undefined)
→ ., ., -0.3%, -12%
8. COc1ccc(C(=O)C2CCCN(Cc3cn(C)nc3-c3ccccc3)C2)cc1F (centres undefined)
→ -26, -3%, -2.1%, 0%
9. Cc1cccc(CCNC(=O)C2CCCN(S(=O)(=O)c3cnc[nH]3)C2)c1 (centres undefined)
→ 0, -3%, -4.0%, 4%
10. CCOC(=O)CNC(=O)Cn1cnc2c(oc3ccccc32)c1=O
→ ., -6%, 0.2%, 1%
11. Cc1ccc(/C=N/n2c(-c3ccncc3)n[nH]c2=S)o1
→ 10, 2%, 2.5%, -10%
12. COc1ccc(-c2csc3ncnc(Nc4ccc(O)cc4)c23)cc1
→ 4, -6%, 0.1%, 0%
13. C#CCOCCOCCOCCNc1nc(N2CCN(C(=O)Cn3cc(CCCN=C(N)N)nn3)CC2)nc(N2CCN(C(=O)[C@H](C)n3cc(CCCN=C(N)N)nn3)CC2)n1
→ 11, 1%, 6.2%, -23%
14. C=CCOc1ccc(C2NC(=O)c3ccccc3O2)cc1 (centres undefined)
→ ., 0%, -1.0%, -1%
15. Cc1cc(F)c(F)c(C(=O)N2CCN(C)CC2)c1Cl
→ 4, -2%, 2.9%, -8%
16. CCCn1c(SCC(=O)Nc2sc(C)c(C)c2C#N)nnc1C(C)C
→ -1, -9%, -1.6%, -16%
17. Cc1ccc(OCCC(=O)OCC(=O)NC2CCS(=O)(=O)C2)cc1 (centres undefined)
→ ., ., -4.4%, 10%
18. NC1=NC2(CCCCC2)N(c2ccc(F)cc2)C(N)=N1
→ 4, -7%, 0.7%, 4%
19. CCOC(=O)Nc1cc2c(cc1[N+](=O)[O-])-c1ccccc1C2=O
→ ., ., -1.1%, 5%
20. C=CCN(c1ccccc1)S(=O)(=O)c1cccc(C(=O)NNC(=O)c2ccncc2)c1
→ ., ., -0.6%, -9%
21. CCOC(=O)c1cnc(COc2ccc(OC)cc2)[nH]c1=O
→ -4, -1%, -1.6%, -13%
22. COc1cccc(CNC(=O)Cn2nc([N+](=O)[O-])c(Br)c2C)c1
→ ., 0%, 1.2%, 7%
23. C=CCn1c(CNS(=O)(=O)c2ccc(Br)cc2)n[nH]c1=S
→ ., 0%, -5.8%, -22%
24. Cc1nc(-c2ccc(NC(=O)C3CCCCC3)cc2)cs1
→ 1, -44%, -2.6%, 21%
25. CCC(C(=O)O)N1C(=O)c2ccccc2C1=O (centres undefined)
→ 4, 0%, 0.8%, 5%
26. O=C1[C@H](Cc2ccccc2)NCCCC[C@H](c2ccc(Cl)cc2)N1Cc1ccccc1
→ ., ., 3.1%, -9%
27. O=C(c1cccs1)N1CCN(S(=O)(=O)c2ccc(F)cc2)CC1
→ 10, 0%, 1.0%, 2%
28. CCOc1ccc(C(c2c(O)nc(SC)n(C)c2=O)c2c(O)nc(SC)n(C)c2=O)cc1
→ 0, -1%, 2.7%, 5%
29. CCC(C)C(NC(=O)c1ccccc1NC(=O)c1ccco1)C(=O)NNC(=O)c1ccncc1 (centres undefined)
→ -4, 0%, 3.6%, 4%
30. COc1ccc(CNC(=O)CCCn2nc(C)c([N+](=O)[O-])c2C)cc1
→ 10, -15%, 2.9%, 1%
31. Cc1ccc(C(C(=O)Nc2ccc3c(c2)OCO3)N(C)C(=O)Cc2c[nH]c3ccccc23)cc1 (centres undefined)
→ -8, 2%, 1.7%, 1%
32. CN1C(=O)NC(c2ccc([N+](=O)[O-])cc2)C2=C1CC(C)(C)CC2=O (centres undefined)
→ ., 0%, 0.0%, 3%
33. CCCc1cc(=O)[nH]c(SCc2nc3ccc([N+](=O)[O-])cc3[nH]2)n1
→ -3, -9%, -0.5%, -13%
34. O=C(NC1CCCCCCC1)c1cc(COc2ccc3ncccc3c2)on1
→ -17, 19%, 3.1%, -6%
35. COc1ccc(CCNc2oc(COc3ccccc3F)nc2C#N)cc1OC
→ 11, 1%, 4.8%, -1%
36. CC(C)c1ccc(C(=O)NCCCN(C)C)cc1
→ 4, -8%, 0.5%, -1%
37. O=C(NNS(=O)(=O)c1ccccc1)C1CC(c2cccnc2)=NO1 (centres undefined)
→ -7, 1%, 0.0%, 9%
38. Cc1ccc2nsnc2c1S(=O)(=O)NCc1cccnc1
→ -6, 0%, -2.5%, -18%
39. COc1ccccc1NC(=O)c1ccc(S(=O)(=O)NCc2ccco2)cc1
→ ., 6%, -5.0%, 8%
40. O=C(Nc1cc(SCCO)cc([N+](=O)[O-])c1)c1ccco1
→ -2, 2%, -1.0%, 9%
41. COc1ccc(-c2nn(-c3ccccc3)cc2C(=O)N2CCN(C(=O)c3ccco3)CC2)cc1
→ ., ., -11%, -3%
42. CCN=C1SC(CC(=O)Nc2sc(C)c(C)c2C(=O)OC)C(=O)N1CC (centres undefined)
→ -8, -5%, -1.2%, -10%
43. O=C(COC(=O)C1CCCCC1)Nc1ccccc1OC(F)F
→ 1, 6%, -1.2%, 1%
44. C[C@H](CO)N1C[C@H](C)[C@H](CN(C)Cc2ccccc2)Oc2ccc(NC(=O)Nc3ccc(F)cc3)cc2C1=O
→ ., ., -5.3%, -11%
45. COc1ccc(C(C(=O)NC2CCCC2)N(CCO)C(=O)Cn2nnc(-c3ccc(C)o3)n2)cc1OC (centres undefined)
→ ., -2%, -0.3%, 2%
46. CCCCCC(=O)Nc1nc(C)c(-c2csc(Nc3cc(Cl)ccc3OC)n2)s1
→ 8, -2%, 0.9%, -19%
47. O=C(CCC(=O)N(CC(=O)NC1CCCCC1)c1ccccc1F)Nc1nccs1
→ ., 3%, 0.0%, 17%
48. Cc1ccc(-n2c(-c3ccccc3)cc(/C=N/NC(=O)CC#N)c2-c2ccccc2)cc1
→ -6, -2%, ., .
49. O=C(CNC(=S)N(Cc1ccccc1F)C1CCCCC1)NCC1CCCO1 (centres undefined)
→ -5, 10%, 5.4%, 18%
50. NC1=NC(=Nc2ccc(S(N)(=O)=O)cc2)c2ccccc21
→ -6, -4%, 0.3%, 14%

Next section.
Values in the order: GLA inh pH 4.5, miR-21 FLuc, Rango complex inh, Rango dissoc inh
51. O=C(COC(=O)CNC(=O)c1ccccc1)Nc1ccc(S(=O)(=O)N2CCCC2)cc1
→ 2, 0%, -0.6%, 4%
52. O=C(NCc1cc(C(F)(F)F)cc(C(F)(F)F)c1)C1CC(c2ccccc2[N+](=O)[O-])=NO1 (centres undefined)
→ -11, -4%, 4.1%, -15%
53. O=C(COc1ccccc1Cl)Nc1ccc(C(=O)N2CCCCC2)cc1
→ ., 13%, ?, 1%
54. COc1ccc(/C=N/NC(=O)CNC(=O)c2ccc(S(=O)(=O)N3CCOCC3)cc2)cc1OC
→ 12, 3%, 0.8%, 0%
55. O=C(/C=C/c1cccs1)NC1CCCC1
→ ., -33%, 0.1%, 8%
56. O=C(OC(C(=O)NC1CCCCC1)c1ccccc1F)c1ccco1 (centres undefined)
→ ., 0%, 1.4%, -7%
57. CCc1ccc(S(=O)(=O)Nc2ccc(N3CCN(C)CC3)cc2)cc1
→ 2, 4%, -0.3%, -22%
58. COc1ccc(NS(=O)(=O)c2ccc(C(=O)N3CCC(C)CC3)cc2)cc1
→ ., ., -0.1%, 11%
59. O=C(COc1ccc(S(=O)(=O)N2CCCC2)cc1Cl)NCc1ccccn1
→ ., -6%, 1.5%, 6%
60. Cc1nnc(SCc2cccc(CSc3nnc(C)s3)c2)s1
→ 0, -46%, -0.8%, 10%
61. N#Cc1ccc(C(=O)Nc2cc(S(=O)(=O)N3CCOCC3)ccc2N2CCCC2)cc1
→ ., ., 0.3%, -1%
62. CC(C)N1CCN(Cc2ccsc2)CC1CCO (centres undefined)
→ 3, 0%, -1.3%, -1%
63. Cc1cc(C)cc(OC(=O)c2cccnc2)c1
→ ., -1%, -1.3%, -2%
64. c1cnc(N2CCN(c3ncnc4c3oc3ccccc34)CC2)nc1
→ 9, -25%, ., .
65. CCOC(=O)N1CCN(c2c(NCCN3CCCCC3CC)c(=O)c2=O)CC1 (centres undefined)
→ 1, 1%, 1.3%, 10%
66. CCOC(=O)N1CCC(N2CCN(CCC(C)C)C(CCO)C2)CC1 (centres undefined)
→ 8, 4%, 2.2%, -8%
67. Cc1cc(NC(=O)CN(C)CC(=O)Nc2ccc(Cl)cc2)no1
→ ., ., ?, -5%
68. CCC(C)NC(=O)CC(C)C (centres undefined)
→ 8, 1%, 2.5%, -1%
69. CCOC(=O)Cc1csc(NC(=O)CC(C)(C)C)n1
→ 0, -26%, -1.0%, ?
70. Oc1ccc(/C=N/Nc2ccccc2)cc1
→ 11, -16%, 1.3%, -10%

Look-ups from the entries so far.
`CCC(C)C(NC(=O)c1ccccc1NC(=O)c1ccco1)C(=O)NNC(=O)c1ccncc1` (centres undefined) in Rango complex inh is entered as 3.6%
`CN1C(=O)NC(c2ccc([N+](=O)[O-])cc2)C2=C1CC(C)(C)CC2=O` (centres undefined) in Rango dissoc inh is entered as 3%

The list goes on.
Values in the order: GLA inh pH 4.5, miR-21 FLuc, Rango complex inh, Rango dissoc inh
71. COc1ccc([N+](=O)[O-])cc1NS(=O)(=O)c1cccc(C(=O)NCCCN2CCCC2=O)c1
→ ., ., 0.1%, -1%
72. Cc1cc(CN(C)C(=O)C2CCC(=O)N(CCc3ccccc3)C2)n[nH]1 (centres undefined)
→ ., -4%, 2.1%, -4%
73. CCOC(=O)Cc1nnc(NC(=O)c2ccccc2OC)s1
→ -3, -24%, 1.0%, 6%
74. CCCc1cc(=O)oc2cc(OCC(=O)NC(Cc3ccc(Cl)cc3)C(=O)O)ccc12 (centres undefined)
→ ., -1%, 1.6%, -5%
75. COc1ccc(OC)c(NC(=O)CN(C)CC(=O)Nc2ccccc2Cl)c1
→ ., -3%, 3.2%, 1%
76. Cc1cc(=O)[nH]c(N/N=C/c2c(C)nn(-c3ccccc3)c2C)n1
→ 6, -11%, -1.3%, 23%
77. Cc1ccccc1-n1c(C)cc(/C=C(\C#N)C(=O)NCC2CCCO2)c1C (centres undefined)
→ -5, -58%, -1.5%, -6%
78. O=c1[nH]nc(-c2ccc(NCCO)c([N+](=O)[O-])c2)c2ccccc12
→ ., -41%, 4.5%, 29%
79. CCOC(=O)c1nn(-c2ccccc2)c(=O)c2c(NC(C)=O)scc12
→ 6, 8%, -1.4%, 13%
80. COc1ccc(NC(=S)Nc2ccccn2)c(OC)c1
→ 4, -45%, -6.4%, 7%
81. CCCCOc1ccc(-n2nc(C)cc2C)nn1
→ 6, -30%, -2.9%, -10%
82. CC1(C)Cc2nc(NC3CCCCC3)c(C#N)cc2CO1
→ 8, -3%, 1.3%, -16%
83. CCOC(=O)C1=C(C)NC(=S)N(C(C)=O)C1c1ccc(OC)c(OC)c1 (centres undefined)
→ -9, -4%, 2.6%, -8%
84. CCCCn1c(N)c(N(CC(C)C)C(=O)c2ccc(-c3ccc(Cl)cc3)o2)c(=O)[nH]c1=O
→ ., ., -2.2%, -7%
85. NS(=O)(=O)c1ccc(CCNC(=O)CCCCCNc2nc(=S)[nH]c3ccccc23)cc1
→ -2, -7%, ., .
86. CCn1nc(C(=O)NNC(=O)C2CSC3(C)CCC(=O)N23)c2ccccc2c1=O (centres undefined)
→ ., ., -4.6%, -10%
87. COc1cccc(OC)c1NC(=O)C1CCCN1C(=O)Nc1ccccc1Cl (centres undefined)
→ ., 1%, -2.0%, -5%
